Source: PubChem BioAssay
Sa growth 42C: S. aureus growth inhibition at 42 and 30 °C, primary screen, LtaS inhibitor project, RN4220, two temperatures | relative growth, % (concentration not given with the values) | OD600, 20 h, 42 °C; active compounds read low | 170,000 tested, 0.53% active | AID 720641, 2013;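 active = growth at 42 °C up to 50% and 20 or more points under that at 30 °C, or under 10% at both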;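 note: 300 nL library stock went into each well; scaled to the means of positive and negative controls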
HCMV NEC inh: inhibitors of HCMV UL50-UL53 interaction, biochemical, HTRF. normalized percent inhibition. inhibition, % (test concentration not listed). 190,000 tested, 0.15% active. HCMV UL50-UL53 nuclear egress complex (human cytomegalovirus);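 active = both replicates at 50% or more, plus weaker picks with an unusually low signal ratio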;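 note: stock transfer was 100 nL into about 20 µL; 0% = negative control wells and 100% = wells with untagged competitor protein; inactives centre near -12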
GIV Gai3 FP: inhibitors of GIV peptide binding to Galpha-i3, primary screen, biochemical, fluorescence polarization, FITC-GIV GBA peptide, rat Galphai3; 210,000 tested, 0.42% active; Guanine nucleotide-binding protein G(i) subunit alpha-3 (Rattus norvegicus), P08753; 90 min; active compounds read low; scaled: aluminum fluoride 0%, vehicle 100%; AID 1224905, 2016; percent of control (FP), % (concentration not given with the values);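 active = replicate mean at 85% of control or lower, very high polarization wells dropped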;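 note: wells of about 15 µL received 100 nL stock; the first replicate is given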
Target sequence (P08753 whole entry, looked up): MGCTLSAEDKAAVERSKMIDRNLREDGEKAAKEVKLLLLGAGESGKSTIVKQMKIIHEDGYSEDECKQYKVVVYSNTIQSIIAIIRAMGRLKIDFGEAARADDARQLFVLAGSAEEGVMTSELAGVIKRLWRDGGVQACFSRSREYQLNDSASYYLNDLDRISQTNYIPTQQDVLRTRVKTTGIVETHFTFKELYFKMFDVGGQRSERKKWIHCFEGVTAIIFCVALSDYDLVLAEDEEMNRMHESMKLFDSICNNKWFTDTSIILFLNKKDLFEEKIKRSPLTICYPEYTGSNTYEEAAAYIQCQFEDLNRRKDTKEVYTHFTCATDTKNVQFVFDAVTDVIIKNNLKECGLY
Sa growth 42C second temp: further read-out of Sa growth 42C, marked with its call; relative growth, %; measured here: growth at 30 °C;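 optical density after 20 h as mean of two plates; 100% = untreated growth and lower means inhibition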
Starred values were filed as active, the others as inactive; · = no result given; & = joins results of further samples. Hits appear at their usual frequency (roughly 0.82% active in at least one column).

molecule	HCMV NEC inh	GIV Gai3 FP	Sa growth 42C second temp	Sa growth 42C
CCN(Cc1ccccc1)S(=O)(=O)c1nc2nc(C)c(C)c(C)n2n1	-10	·	76	95
COc1cccc(CNC(=O)C23CC4CC(CC(O)(C4)C2)C3)c1	-13	·	91	88
CC(=O)c1cccc(NC(=O)c2noc3c2CCCC3)c1	12	105	106	97
O=C(C1Nc2cc(F)ccc2S(=O)(=O)N1)N1CCN(c2ccc(Cl)cc2)CC1 (centres undefined)	-14	109	·	·
COc1ccc(-c2cc(=O)c3cc(OC(=O)c4ccc(OC)c(OC)c4)ccc3o2)cc1	·	110	78	81
CC(c1ccccc1)N1CC(O)=C(c2nc3ccccc3[nH]2)C1=N (centres undefined)	·	101	90	90
CCOC(=O)N1CCN(C(=O)c2cc3c(=O)n(C)c4ccccc4c3n2C)CC1	·	109	94	80
CCN(C1CCCCC1)S(=O)(=O)c1cc(F)ccc1OC	4	110	96	111
COc1cc(/C=C(\NC(C)=O)C(=O)O)cc(OC)c1OC	-28	115	94	109
Cc1ccc(CNC(=O)CN2C(=O)C3(SCC(=O)N3c3cc(C)cc(C)c3)c3ccccc32)cc1 (centres undefined)	·	107	91	94
COCCN1C(=O)CS/C1=C(/C#N)C(=O)NCc1ccco1	-35	·	89	90
Cc1ccc2c(c1)c(=O)c1ccccc1n2CC(=O)Nc1c(C)cc(Br)cc1C	0	106	·	·
COc1ccc(N2CCN(Cc3cn4c(C)cc(C)nc4n3)CC2)cc1	-1	·	89	72
CCOC(=O)c1ccccc1NC(=O)CSc1[nH]c2ccccc2c(=O)c1C(=O)OC	-21	109	·	·
O=C(COc1ccccc1)Nc1cccc(-c2nc(-c3ccccc3)no2)c1	-26	103	·	·
CCC(C)NC(=O)C(C)n1nc(C)c2ccccc21 (centres undefined)	1	108	85	97
COc1ccc(NC(=O)COc2ccc(S(=O)(=O)NC3CCCCC3)cc2)cc1OC	-23	102	82	85
Cc1ccccc1C(=O)Nc1nc(-c2nnn(-c3ccc(C(C)C)cc3)c2C)ns1	·	92	93	92
NC(=O)C1CCN(C(=O)C2C3C=CC(O3)C2C(=O)O)CC1 (centres undefined)	-13	100	75	97
COc1ccc(CCn2c(N)c(-c3nc4ccccc4[nH]3)c3nc(C#N)c(C#N)nc32)cc1OC	-15	·	94	111
O=C(Nc1cccc(F)c1)C1CC(=O)N(CCc2c[nH]c3ccc(F)cc23)C1 (centres undefined)	1	99	·	·
Cn1nc(-c2ccc(Cl)cc2)cc1NC(=O)CSCC(=O)O	-16	101	87	92
COc1ccc(NC(=O)CSc2nc3ccccc3nc2N2CCC(C)CC2)cc1	-53&-11	107&96	88	95
Cc1ccc(CNC(=O)c2c(C)oc3nc(C)nc(N4CCOCC4)c23)cc1	·	101	88	77
COc1ccc(CCNc2ncnc3sccc23)cc1	-20	·	86	96
COc1ccc(C(=O)N2CCN(C(=O)COc3ccc(Br)cc3)CC2)cc1OC	-4	108	95	111
COc1ccc(-n2cc(-c3ccccc3)c3c(Nc4ccccc4)ncnc32)cc1	·	103	90	127
CCc1ccc(C(=O)c2cn(CC(=O)Nc3cc(OC)cc(OC)c3)c3ccc(CC)cc3c2=O)cc1	4	112	97	78
CCOC(=O)c1ccc(NC(=O)c2cc3cc4c5c(c3oc2=N)CCCN5CCC4)cc1	-9	-14*	87	105
CCS/C=C/C#CC1(O)CCCCC1	-10	106	120	136
CCOc1ncccc1C(=O)OCc1ccccc1	2	·	94	89
CCN(Cc1ccccc1)C(=O)/C=C/c1ccc(OC)cc1	-32	108	86	113
CCOC(=O)C(CC)Oc1cc(O)c2c(=O)cc(-c3ccccc3)oc2c1 (centres undefined)	3	94	·	·
CCN(CC)CCCNC1CCCC1	-18	·	87	102
CCOC(=O)c1noc(N)c1-c1ccccc1	2	·	88	105
Cc1ccc(N2C(=O)CS(=O)(=O)C23C(=O)N(C)c2ccccc23)cc1F (centres undefined)	·	103	89	79
CCCCNS(=O)(=O)c1ccc2nc(-c3cccnc3)cc(C(=O)NCCCOC(C)C)c2c1	·	99	68	102
CCOc1ccc(OC(C)C(=O)NN)cc1 (centres undefined)	-9	·	87	97
CCc1cccc(NC(=O)COC(=O)Cc2cn3ccsc3n2)c1	-3	·	85	91
CN(C)c1ccc(NS(=O)(=O)c2ccc(N3C(=O)CCS3(=O)=O)cc2)cc1	-25	118	·	·
Cc1ccc2c(c1)-c1c(cnc3cc(-c4ccc(Cl)cc4)nn13)CO2	-23&5	109&98	82	100
Cc1cc(NC(=O)Cn2c(=O)n(CCCC(=O)NCc3ccc4c(c3)OCO4)c(=O)c3ccccc32)n[nH]1	2	100	92	117
COc1cc(OC)cc(-c2noc(Cn3c(=O)[nH]c4cc5c(cc4c3=O)OCO5)n2)c1	4	106	·	·
NC(=O)CNC(=O)c1cccs1	-2	103	87	111
O=C(NCc1ccccc1Cl)c1ccc2c(c1)nnn2C1CCCC1	·	108	85	104
Cc1nc2ccccc2nc1SCc1nc(N)nc(N2CCCCC2)n1	-2	99	94	95
CCn1c(=NC(=O)C(C)(C)C)sc2ccccc21	-21	105	50	69
O=S(=O)(CCc1ccccc1)/N=C/c1ccco1	-13	·	94	95
COC(Cn1cc2c(c1-c1ccccc1Br)c(=O)n(C)c(=O)n2C)OC	-10	102	83	98
O=C(CN1C(=O)/C(=C/c2ccccc2F)Oc2ccccc21)N1CCCC1	·	99	87	80
Cc1cc(C)nc(/N=C2\NC(=O)CN2c2cc(Cl)cc(Cl)c2)n1	7	103	85	99
CCCC(=O)Nc1nn2c(-c3ccc(OC)cc3)nnc2s1	·	98	85	89
CCOC(=O)c1cc(S(=O)(=O)N(C)c2ccccc2)[nH]n1	·	109	98	105
CCN(CC)Cc1cc(NC(C)=O)ccc1O	-8	103	85	96
CCOC(=O)c1ccc(NC(=O)c2c(N3CCCC3=O)c3cc(OC)ccc3n2C)cc1	·	105	89	78
CCOc1cc(/C=C2/C(=O)ON=C2C)cc(Cl)c1OCc1ccc(F)cc1	·	98	52	68
Cc1ccc(C)c(NC(=O)C2COc3ccccc3O2)c1 (centres undefined)	-21	100	·	·
CCOC(=O)c1cc(-c2ccc(F)cc2)n(CCC(=O)Nc2cc(OC)cc(OC)c2)c1C	·	99	98	95
CCN(c1ccc(Cl)cc1)S(=O)(=O)c1nnc(NC(=O)C(C)C)s1	-7	99	95	103
Cc1ccc(NC(=O)c2ccn(C(=O)Nc3cccc(Cl)c3)n2)cc1	12	·	70*	45*

3 entries already listed, arranged by the number in GIV Gai3 FP, highest first.
| SMILES | GIV Gai3 FP | Sa growth 42C second temp |
| --- | --- | --- |
| CCn1c(=NC(=O)C(C)(C)C)sc2ccccc21 | 105 | 50 |
| CCN(CC)Cc1cc(NC(C)=O)ccc1O | 103 | 85 |
| CCN(c1ccc(Cl)cc1)S(=O)(=O)c1nnc(NC(=O)C(C)C)s1 | 99 | 95 |

The listing continues.
molecule	HCMV NEC inh	GIV Gai3 FP	Sa growth 42C second temp	Sa growth 42C
CCc1ccc(CNC(=O)c2ccc(-c3nc(CSc4ccc(C)cc4)c(C)o3)cc2)cc1	·	105	101	120
O=C(CN1C(=O)COc2ccc(S(=O)(=O)N3CCOCC3)cc21)NCc1ccc(F)cc1	·	108	86	113
CCOC(=O)c1cnc2cc(OC)ccc2c1Cl	-36	106	84	91
CCOC(=O)c1nnc(Cc2ccc(C)cc2)o1	·	97	103	100
OC1C(O)C(O)C(O)C(O)C1O (centres undefined)	-2	·	91	94
CSc1nnc(CNC(=O)Cc2c(F)cccc2Cl)n1C	24	102	89	99
COc1ccc(OCCSc2nnc(-c3ccc(OC)cc3)o2)cc1	5	·	99	102
Cc1cc(O)c(C(=O)c2cccs2)c(=O)o1	-21	·	88	104
Cc1conc1NC(=O)CNC(=O)C1CCCCC1	-26	·	81	99
CCC(CC)NS(=O)(=O)c1ccc(Br)cc1	-1	104	106	115
Cc1[nH]c(=S)c(C#N)c(C)c1Cc1ccc(Cl)cc1Cl	6	103	87	82
Cc1ccc2oc(=O)c(/C=C(\O)CC(C)C)nc2c1	·	105	94	106
CS(C)(=O)=NS(=O)(=O)c1cc(S(=O)(=O)N=S(C)(C)=O)c(Cl)s1	-38	102	87	92
CC1(C)CC(=O)CC(c2ccccc2)(C(F)(F)F)O1 (centres undefined)	-1	104	92	96
CCN(CC)C(=O)c1c[nH]c2ccc(S(=O)(=O)Nc3cc(C)cc(C)c3)cc2c1=O	·	105	79	101
CCOC(=O)NC1(Nc2ccccc2)Oc2ccccc2O1	14	102	92	96
O=S(=O)(NCc1cccs1)c1cccc2cccnc12	-15	92	86	99
COc1ccc(NC(=O)Cn2c(=O)n(CCCC(=O)NCc3ccccc3Cl)c(=O)c3ccccc32)c(OC)c1	17	100	100	100
COC(=O)Cn1c(SCCOc2ccccc2Cl)nc2ccccc21	-7	96	94	97
COc1ccc(Cl)cc1NC(=O)Cc1ccc(NC(=O)N2CCCCc3ccccc32)cc1	·	97	90	94
CCOC(=O)c1c2c(n3ccccc13)C(=O)c1ccccc1C2=O	·	-42*	8.4*	9.7*
CCCCNC(=O)Cc1csc(NC(=O)C2CC2)n1	-20	101	·	·
COc1ccc2c3c(cccc13)OCC2=O	-70	109	78	120
COc1cccc(NC(=O)c2cn(C)c(=O)c3cc(OC)c(OC)cc23)c1	-22	101	86	83
Cc1oc(-c2cccs2)nc1CS(=O)CC(=O)NC1CCCC1 (centres undefined)	-24	110	79	96
COc1ccc(Cl)c2c1NC(c1cc(Br)c(OC)c(OC)c1)C1CC=CC21 (centres undefined)	-10	100	·	·
CCC(=O)Nc1ccccc1-c1nnc(SC(CC)C(=O)Nc2cccc(C)c2C)[nH]c1=O (centres undefined)	-17	98	·	·
COc1cccc(-c2nnc(-c3ccc(NC(=O)C(F)(F)F)cc3)o2)c1	-2	·	86	125
CCCNC(=O)Cc1c(C)nc2nc(C3CCCCC3)nn2c1C	-1	100	·	·
CC1Cc2ccccc2N1C(=O)C1CC(=O)N(c2ccccc2)C1 (centres undefined)	12	101	87	88
CCCNC(=O)c1ccc2c(c1)CCN2S(C)(=O)=O	13	106	·	·
Cc1ccc(-n2c(C)c(C)c3c2N=CN2CCS(=O)(=O)N=C32)cc1	-8	·	90	96
COc1ccc(C2CC(c3ccc(Cl)c(Cl)c3)Nc3nc(N)nn32)cc1OC (centres undefined)	-22	102	88	96
O=C(CN1N=C(c2ccccc2F)c2cc(Cl)ccc2S1(=O)=O)NC1CCCCC1	-8	103	·	·
O=C(O)c1cccc(I)c1	-27	·	87	106
CCOC(=O)C1=C(C)N=c2s/c(=C\c3ccc(OCC(=O)O)cc3)c(=O)n2C1c1ccccc1OC (centres undefined)	-45	130	·	·
CCN(Cc1ccccc1)C(=O)c1c(C)oc2ncn(C)c(=O)c12	·	105	90	89
COc1cc(OC)c(NC(=O)c2nn(-c3ccc(C)cc3)c(=O)c3c2c2ccccc2n3C)cc1Cl	-23	102	86	94
Cc1nc(S(=O)(=O)NCc2ccc3c(c2)CCO3)cn1C	-4	101	102	96
C=CCn1c(CSc2nc(N)cc(N)n2)nnc1SCC(=O)NC1CCCCC1	-1	112	92	101

Whole records, looked up by structure.
`CCOC(=O)c1c2c(n3ccccc13)C(=O)c1ccccc1C2=O` is entered as HCMV NEC inh: ·; GIV Gai3 FP: -42*; Sa growth 42C second temp: 8.4*; Sa growth 42C: 9.7*
`COc1cccc(NC(=O)c2cn(C)c(=O)c3cc(OC)c(OC)cc23)c1` is entered as HCMV NEC inh: -22; GIV Gai3 FP: 101; Sa growth 42C second temp: 86; Sa growth 42C: 83

Following part
molecule	HCMV NEC inh	GIV Gai3 FP	Sa growth 42C second temp	Sa growth 42C
CCCc1nc2ccccc2n1CC(O)COc1ccc(C(C)C)cc1 (centres undefined)	-25	109	·	·
Clc1ccc(Nc2c3c(nc4ncnn24)CCC3)cc1	-1&-18	101&98	65	83
O=C(NCCCN1CCOCC1)C1CC(c2ccccc2O)=NO1 (centres undefined)	-3	101	79	93
COc1cc(NC(=O)Cn2nnc(-c3ccc(C(F)(F)F)cc3)n2)c(C(=O)O)cc1OC	·	102	90	110
COc1ccc2c(c1)c1nc(SCC(C)C)n(CCO)c(=O)c1n2C	4	107	83	88
COC(=O)c1cn(C(=O)c2ccccc2)c2ccccc12	·	97	84	97
N#Cc1c(SCC(=O)N2CCOCC2)nsc1SCC(=O)N1CCOCC1	-17	99	84	96
COc1ccc(-c2cc(C(=O)Nc3cc(C(F)(F)F)ccc3Cl)no2)cc1	-7	105	90	100
O=C(c1cccs1)c1coc2ccc(Cl)cc2c1=O	-10	·	68	57
COc1ccc(-c2nn3c(Nc4ccccc4)cc(C)nc3c2C)cc1OC	-25	107	·	·
N#CCSc1ccc(-c2cccnc2)nn1	-122	103	85	85
Cc1ccc2c(c1)cc(C(=O)Nc1sc3c(c1C(N)=O)CCCC3)n2C	-6	103	·	·
